# HTT prom inh: inhibitors of huntingtin promoter activity; HEK293 HTT promoter firefly luciferase reporter (activity 0% = vehicle and -100% = no light), 24 h; Potency, µM (doses to about 57.5 µM), for the others: top-dose activity change, negative = inhibition, hits mostly inhibitors; 48,000 compounds, 0.93% hits; AID 1508623; active means well fitted inhibition curve with a large enough effect; inconclusive means small, poorly fitted or top-dose-only effect; inactive means no such curve, though single readings can be large or run the other way; further: nearly all actives have a fitted effect of over 50% in size
#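 HEK293 luciferase promoter-reporter cells (2,500/well) plated 24 h, then compounds added at up to 57.5 uM final for 24 h at 37 °C. Firefly luminescence by Dual-Glo, normalized to vehicle (0%) and zero RLU (-100%).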
# PMP22 txn prim: modulates PMP22 transcription in S16 Schwann cells. AID 1508649. 43,000 compounds, 2% hits. Potency, µM (top dose mostly 57.5 µM), for inactives: top-dose activity change, negative = inhibition, hits mostly inhibitors. S16 Pmp22-F2sN Schwann cells (luciferase reporters placed in the Pmp22 gene), FLuc/NLuc coincidence luminescence, 24 h; active = clear falling dose curves in both reporters; inconclusive = both reporters move, but less clearly or upward; inactive = either reporter flat; the % is the NLuc reporter signal; further: on the % scale 0 is the no-effect control and ±100 the full control effect; some results filed as inactive show a strong effect at the top dose
#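 Rat S16 Pmp22-F2sN cells, 500-1,000/well in phenol red-free DMEM + 10% FBS, compound-treated 24 h (37C, 5% CO2). Luminescence: FLuc read, Stop&Glo added, NLuc read.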
# Starred values were filed as active, the others as inactive; ? = inconclusive; . = not tested or not shown; [ ] = remark or other dose. Potency means the concentration at half of the fitted maximal effect. Outcome played no part in choosing rows (roughly 2.6% active in at least one column).
SMILES	HTT prom inh	PMP22 txn prim
COc1cccc(-c2nnc(SCC(=O)N(C)c3ccccc3)o2)c1	22.4%	23.3%
O=C(COc1ccccc1)NCC(c1ccc(Cl)cc1)N1CCOCC1 (centres undefined)	-24.8%	-0.6%
COC(=O)c1ccccc1NC(=O)c1nc(-c2ccc(C)cc2)n2c1CCCCC2	-15.7%	-17.1%
CCOC(=O)c1c(-c2ccccc2)oc2ccc(NS(=O)(=O)c3ccc(OC)cc3)cc12	?	-19.6%
COc1ccc(NC(=O)/C=C\C(=O)N(c2ccc(C(C)C)cc2)C(C(=O)NCc2ccco2)c2ccc(C)cc2)cc1 (centres undefined)	?	?
CC(C(=O)O)c1ccc(-c2ccccc2)c(F)c1 (centres undefined)	-10.6%	.
CCCCN1CC(c2nc3ccccc3n2CCCCOc2ccccc2C)CC1=O (centres undefined)	?	?
COc1cc(NC(=O)CC(C)S(=O)(=O)c2ccc3c(c2)CCN3C(C)=O)cc(OC)c1OC (centres undefined)	-6.4%	-18.2%
COc1ccccc1NC(=O)CSc1nc2c(oc3ccccc32)c(=O)n1-c1ccc(C)cc1	0.7%	?
CCOc1ccc(C(=O)NCC(c2ccc3c(c2)OCO3)N2CCN(C)CC2)cc1 (centres undefined)	-6.8%	-0.5%
O=C(C1CC1)N1CCN(c2nc3c(Cl)cccc3s2)CC1	-8.4%	-11.0%
COc1ccc(C(=O)OC2=C(C(=O)c3ccccc3)N(C)S(=O)(=O)c3ccccc32)cc1OC	-14.7%[11.5 µM]	?
COc1ccc(C)cc1-n1nnc(-c2nc(-c3ccccc3Cl)no2)c1N	2.4%	?
CC(=O)c1cc2c(cc1N/C(=N/S(=O)(=O)c1ccc(Cl)cc1)c1ccc(F)cc1)OCO2	-15.1%	-18.4%
COc1cc2[nH]c(=O)n(CCCCCC(=O)NCCc3ccccc3)c(=O)c2cc1OC	-9.0%	-32.1%
COc1ccc(NC(=O)c2nc(SCc3ccccc3F)ncc2Cl)cc1	4.9%	-24.1%
CCCCC(CC)CN=C(N)NC(N)=NCCCCCCN=C(N)NC(N)=NCC(CC)CCCC (centres undefined)	?	.
CC(=O)Nc1ccc(S(=O)(=O)NC2=NCN(CCO)CN2)cc1	-7.3%	-1.2%
CC(C)CC(=O)Nc1nnc(S(=O)(=O)N2c3ccccc3CC2C)s1 (centres undefined)	-10.5%	-2.1%
CC(=O)N1c2ccccc2C(=O)C1N1CCN(c2cccc(C(F)(F)F)c2)CC1 (centres undefined)	?	-0.6%
Cc1ccc2c(CNCc3cccc(Cl)c3)c(C(=O)O)n(Cc3ccc(F)cc3Cl)c2c1	-5.0%	10.2%
Cc1cccc(NS(=O)(=O)c2nnc(NC(=O)c3cccc(C)c3)s2)c1	-3.8%	-28.0%
CC(C)CCNC(=O)CCC(=O)N1Cc2ccccc2Oc2ncccc21	0.1%	-10.6%
O=C1OCC2=C1C(c1cccc(Cl)c1)CC(=O)N2c1ccc(C(F)(F)F)cc1 (centres undefined)	-16.2%	-8.0%
COc1cc(NC(=O)c2nc(-c3ccncc3)no2)cc(OC)c1OC	7.1%	1.3%
CCCN1C(=O)C(Cc2nc3ccccc3c(=O)n2-c2ccccc2)c2cc(C)ccc21 (centres undefined)	-29.8%	?
COc1cccc(N2CCN(C(=O)Cn3cnc4onc(-c5ccc(F)cc5)c4c3=O)CC2)c1	?	?
CCc1ccc(CN(C(=O)c2cc3ccccc3oc2=O)C2CCS(=O)(=O)C2)cc1 (centres undefined)	54.3%[activator]	2.5%
CCc1ccc(-c2nc(CS(=O)CC(=O)NCCc3ccc(Cl)cc3)c(C)o2)cc1 (centres undefined)	?	15.2%
CCOc1ccc(NC(=O)CN(C)S(=O)(=O)c2ccc3c(c2)c(=O)n(C)c(=O)n3C)cc1	-12.0%	-10.5%
COc1ccc(-n2ncc3c(NC(C)(C)CO)ncnc32)cc1	-22.2%	14.8%
COc1ccc(NC(=O)CSCc2cc(=O)c3cc(C)ccc3[nH]2)cc1	-6.3%	-1.7%
CCOC(=O)c1ccc(NC(=O)CSc2nc3c([nH]c4ccccc43)c(=O)n2C)cc1	-22.5%	14.1µM*
COc1ccc(Cl)cc1NCc1nnc2n1CCCCC2	-11.7%	12.7%
COc1cc(C2NC(=O)c3c(sc4c3CCN(C)C4)N2)cc(Br)c1OC(=O)c1ccc(C)cc1 (centres undefined)	-0.6%	?
COCCNC(=O)c1ccc2c(c1)N(Cc1cccc(Cl)c1)C(=O)c1ccccc1S2(=O)=O	?	0.8%
CCC(=O)N1c2ccccc2CC1C(=O)NCc1cccc(OC)c1OC (centres undefined)	-10.1%	17.3%
O=C(CCS(=O)(=O)c1cc(Br)cc2c1N(C(=O)C1CC1)CC2)N1CCN(c2ccccc2)CC1	-4.1%	-24.3%
CCOC(=O)c1ccc(NC(=O)Cn2c(=O)n(-c3ccc(C)cc3)c(=O)c3c2cnn3C)cc1	-8.6%	3.7%
CCNC(=O)c1c(NC(=O)Cc2coc3cc(C)ccc23)sc2c1CCCC2	?	?
O=C(Cc1ccc(F)cc1)Nc1cccc(-c2nc3cccnc3s2)c1	-15.4%	-20.4%
CCCN(CCC)C(=O)c1c2c(nc3ccccc13)C(=O)N(C1CCCCC1)C2	-14.9%	-41.1%
Cc1ccc(C)c(S(=O)(=O)c2cnc(SCC(=O)Nc3ccc(F)cc3F)[nH]c2=O)c1	-1.4%	-59.3%
CCOc1nc(-c2ccc(C)cc2)ccc1-c1noc(-c2ccccc2F)n1	-8.7%	13.0%
CC1(C)C(=O)N(CC(=O)Nc2ccc(Cl)cc2)c2ccccc21	-22.4%	-7.6%
CCOC(=O)C(=O)NCC(c1cccnc1)N1CCN(c2ccccc2)CC1 (centres undefined)	-6.2%	-12.8%
CC(=O)c1nn(-c2ccc(OC(F)(F)F)cc2)nc1Nc1ccccc1	45.4%[activator]	24.0%
CCOC(=O)c1c(NC(=O)C2c3ccccc3Oc3ccccc32)sc2c1CCC(CC)C2 (centres undefined)	-9.1%	5.5%
Cc1nc2ccc(S(=O)(=O)CCC(=O)Nc3ccc(F)cc3C)cc2s1	-11.8%	2.9%
CC(N)C(=O)OC(C)(C)Cc1ccc(Cl)cc1 (centres undefined)	-9.2%	.
CCOC(=O)N1CCN(Cc2nc3cc(NC(=O)C(C)C)ccc3n2C(C)C)CC1	?	6.31µM*
Cc1ccc(Cl)cc1Nc1nc2ccccc2c2nncn12	-9.5%	-18.3%
CCOc1ccc(Nc2c(S(=O)(=O)c3ccc(C)cc3)cnc3ccc(F)cc23)cc1	?	?
COCCn1c(SCc2ccccc2F)nc2c([nH]c3ccccc32)c1=O	-23.6%	10.6µM*
COc1ccc(NC(=O)N2CCN(S(=O)(=O)c3ccc4c(ccn4C)c3)CC2)c(OC)c1	-27.6%	7.8%
O=C(Nc1cccc(Cl)c1Cl)c1cc(S(=O)(=O)N2CCCCC2)ccc1F	-19.3%	16.9%
COc1ccc(S(=O)(=O)NCCc2cn3ccsc3n2)cc1	-3.6%	-17.2%
COC(=O)COc1ccc2oc(-c3ccc(OC)cc3)cc(=O)c2c1	75.7%[activator]	-10.5%
Cc1cccc(CC(=O)Nc2c(C(=O)Nc3cccc(F)c3)oc3ccccc23)c1	-9.9%	4.1%
Cc1cccc(CNC(=O)CCn2c(=O)c3cccn3c3ccc(F)cc32)c1	3.2%	?

# Shown as labelled records: entries from further up.
> COc1ccc(NC(=O)N2CCN(S(=O)(=O)c3ccc4c(ccn4C)c3)CC2)c(OC)c1
  HTT prom inh: -27.6%; PMP22 txn prim: 7.8%

> COCCn1c(SCc2ccccc2F)nc2c([nH]c3ccccc32)c1=O
  HTT prom inh: -23.6%; PMP22 txn prim: 10.6µM*

# Next part
SMILES	HTT prom inh	PMP22 txn prim
COc1ccc(S(=O)(=O)N2CCN(Cc3nc4ccc(C)cc4o3)CC2)cc1	-13.7%	4.1%
CCc1nc2ccccc2n1CCCCOc1ccccc1C	?	?
CCS(=O)(=O)N1CCc2cc(C(=O)N3CCN(c4ccccc4OC)CC3)ccc21	?	?
COc1ccc(-c2nn(CC(=O)NC3CCCC3)c3c2cnc2ccc(F)cc23)cc1	55.8%[activator]	5.5%
O=C(NCc1ccccc1)C(=O)Nc1ccc2nc3n(c(=O)c2c1)CCCCC3	-24.1%	0.6%
O=C(Nc1ccc(Cl)cc1)c1ccc2oc(=O)n(Cc3ccccc3)c2c1	-29.0%	-34.1%
COCCn1c(C)cc(O)c(C(c2ccc(C)cc2)N2CCCCC2)c1=O (centres undefined)	-12.0%	0.4%
O=c1c2oc3ccccc3c2n(Cc2ccccc2F)c(=O)n1Cc1ccccc1	-22.4%	-17.9%
O=C(NCc1ccccc1)c1ccc(CSc2nc3cccnc3n2Cc2ccccc2)cc1	?	?
COc1ccccc1CNC(=O)c1cc2ccc3ccc(C)[nH]c3c2n1	-28.2%	?
CCCCn1cc(S(=O)(=O)c2ccccc2)c(=O)c2cc(F)c(N3CCC(C)CC3)cc21	-6.1%	?
CCOC(=O)c1cnc2c(OC)cccc2c1Nc1cccc(O)c1	?	-0.2%
COc1ccc(C(=O)Nc2nnc(C(C)C)s2)cc1OC	72.6%[activator]	0.9%
COc1ccc(Cl)cc1NC(=O)C1CCN(S(=O)(=O)c2ccc(F)cc2)CC1	?	7.4%
Cc1ccc2sc(-c3ccc(N)cc3)nc2c1	11.9%	-25.9%
COc1ccccc1N1CCN(c2ncnc3c2cnn3-c2cc(Cl)ccc2C)CC1	?	8.43µM*
CCCCc1cc(=O)oc2cc(C)c3c(C(C)(C)C)coc3c12	-8.6%	?
CCc1ccc(NCc2cc3cc4c(cc3n(CC(=O)Nc3ccc(F)cc3)c2=O)OCCO4)cc1	-21.5%	?
O=C(Cn1c(=O)n(Cc2ccc3c(c2)OCO3)c(=O)c2ccccc21)Nc1cccc(Cl)c1	-21.0%	?
Cc1c(C(=O)NCc2ccc(Cl)cc2)oc2ccc3c(c12)C(=O)CC(C)(C)O3	13.3%	?
Cc1ccc2c(=O)cc(C(=O)Nc3ccc(S(=O)(=O)N4CCC(C)CC4)cc3)oc2c1C	13.0%	1.1%
COc1ccc(CCNC(=O)CCc2c(C)nc3c(c(C)nn3-c3ccc(C)cc3)c2C)c(OC)c1	-9.9%	?
Cc1cc(C)c(NC(=O)C2CCN(c3nc4ccccc4n4cccc34)CC2)c(C)c1	-7.7%	-18.3%
Nc1cc(=O)nc(SCC(=O)Nc2ccc(F)cc2)n1-c1cccc(Cl)c1	-18.5%[11.5 µM]	-6.6%
COc1ccc(NC(=O)c2c(NC(=O)COc3ccc(Cl)cc3)sc3c2CCCCC3)cc1	62.5%[activator]	?
COc1cc(C2C=C(C(=O)O)Nc3ncnn32)ccc1O (centres undefined)	-6.6%	6.0%
Cc1cn2c(=O)cc(COC(=O)c3cccc(NC(=O)c4ccc(C(C)(C)C)cc4)c3)nc2s1	-10.7%	2.5%
O=C(CCCn1c(=O)c2ccccc2n(CC(=O)Nc2cccc(Cl)c2)c1=O)NCc1ccc2c(c1)OCO2	-10.1%	?
Cc1oc(-c2ccccc2Cl)nc1Cn1c(SCc2cccc(F)c2)nc2cccnc21	?	?
O=C(NCc1ccc(Cl)cc1)C1CCN(S(=O)(=O)c2ccccc2)CC1	-36.4%	-25.4%

# The list goes on; the last 3 above are carried over.
SMILES	HTT prom inh	PMP22 txn prim
O=C(CCCn1c(=O)c2ccccc2n(CC(=O)Nc2cccc(Cl)c2)c1=O)NCc1ccc2c(c1)OCO2	-10.1%	?
Cc1oc(-c2ccccc2Cl)nc1Cn1c(SCc2cccc(F)c2)nc2cccnc21	?	?
O=C(NCc1ccc(Cl)cc1)C1CCN(S(=O)(=O)c2ccccc2)CC1	-36.4%	-25.4%
Cc1ccccc1C(=O)N1CCCCC1CCN1CCCCC1 (centres undefined)	-4.7%	2.5%
COc1cccc2c1cc1c(=O)n(CC(=O)N3CCN(c4cccc(C)c4C)CC3)nc(C)n12	7.8%	-13.6%
O=C(Oc1ccccc1F)c1nc(SCc2ccc(F)cc2)ncc1Cl	9.4%	-18.7%
COc1ccc(-c2c(C)c3ccc(O)c(CN4CCN(C)CC4)c3oc2=O)cc1OC	-20.6%	4.2%
O=C(CC1Sc2ccccc2NC1=O)Nc1cccc(C(F)(F)F)c1 (centres undefined)	-31.4%	1.0%
Cc1ccc(-c2nn3c(C)nnc3c3ccccc23)cc1S(=O)(=O)NC(C)(C)CO	33.7%[activator]	?
O=S(=O)(O)CCSSCCS(=O)(=O)O	?	.
CC(C)NCC(O)c1ccc(NS(C)(=O)=O)cc1 (centres undefined)	6.3%	.
Cc1ccc2cccc(NC(=O)c3ccc(-c4ccc(Cl)cc4Cl)o3)c2n1	-0.4%	9.8%
COc1ccc(OC)c(CCNC(=O)C2CCN(c3ncnc4c3nc3n4CCCCC3)CC2)c1	-4.7%	-2.7%

# Assay outcomes: PubChem, National Center for Advancing Translational Sciences (NCATS)
